Bioassay records from PubChem BioAssay.
Rango-impB inh: qHTS Assay for Inhibitors of Rango (Ran-regulated importin-beta cargo) - Importin beta complex formation. Rango CFP/YFP FRET sensor + importin beta, 45 min. AID 540263, 2011. 340,000 tested, 0.031% active. Potency, µM (titrated, usually from 92.2 µM), inactives show at the highest dose inhibition of complex formation; active = rising FRET ratio curve, often small or poorly fitted; inconclusive = mostly compound fluorescence or quenching in the first reads; inactive = flat curves in all reads;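 also: potency is read from the fitted curve at half-maximal effect; 0% = DMSO wells and 100% = buffer wells lacking importin beta; nearly all actives have a fitted effect of over 15% in size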
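FRET biosensor Rango (snurportin 1 IBB between N-terminal EYFP and C-terminal Cerulean), 50 nM in PBS/1 mM DTT/0.02% Tween-20/0.1% BSA, preincubated 5 min RT with compound; 0.125 microM importin beta added, 45 min RT, CFP/YFP FRET ratio read.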
miR-21 reporter: qHTS Assay for Modulators of miRNAs and/orActivators of miR-21; Potency, µM (top dose mostly 38.3 µM), inactives show top-dose reporter change, positive = more light; AID 2288, 2010; 340,000 tested, under 10 active; HeLa miR-21 FLuc reporter, luciferase, 48 h; active = well fitted rising curve with a large enough effect; inconclusive = small, poorly fitted or top-dose-only effect; inactive = no such curve, though single readings can be large or run the other way;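 also: % of control where 0% means no effect; miR-21 action dims this reporter so a rising signal means less miR-21 action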
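HeLa cells endogenously expressing miR-21, stably carrying CMV-driven firefly luciferase with a downstream miR-21 binding site, 2000 cells/well. Titrations up to approximately 40 uM, 48 hours; luciferase luminescence read.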
Rango dissoc inh: qHTS Assay for Inhibitors of RanGTP induced Rango (Ran-regulated importin-beta cargo) - Importin beta complex dissociation; 340,000 tested, 0.071% active; Potency, µM (top dose mostly 46.1 µM), for the others: at the highest dose activity change, negative = inhibition; Snurportin-1 (Homo sapiens) + GTP-binding nuclear protein Ran (Homo sapiens) + Importin …; Biochemical FRET Rango-importin beta, RanGTP-induced dissociation; active means falling FRET ratio curve, often poorly fitted, with flat reads before Ran was added; inconclusive means other falling curves, or compound fluorescence or quenching; inactive means flat or rising ratio curve;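 also: potency is read from the fitted curve at half-maximal effect; % of control where 0% means no effect; nearly all actives have a fitted effect of over 45% in size; -100% = wells without RanGTP and RCC1; the record marks most hits as doubtful in a second field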
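Compounds sat 5 min at room temperature with 0.1 uM Rango biosensor plus 0.25 uM importin beta, then FRET pre-read. RanGTP-RCC1 (0.6 uM Ran, 2mM GTP, 0.2 uM RCC1) added for 45 min, and the CFP/YFP post-read measured blocked complex dissociation.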
GLA inh pH 4.5: qHTS Assay for Inhibitors of Human alpha-Galactosidase at pH 4.5; 230,000 tested, under 10 active; activity change, negative = inhibition, % at 105 µM; AID 1467, 2008; purified enzyme, 4-MU-alpha-Gal fluorescence, pH 4.5; inconclusive = small, poorly fitted or top-dose-only inhibition, or a rising curve; inactive = flat fitted curve, though single readings scatter; no compound was filed as active;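 also: 0% = full activity with enzyme and -100% = basal without enzyme; dose as in the result columns while the protocol names 77 µM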
Target sequence (P06280 whole entry, looked up): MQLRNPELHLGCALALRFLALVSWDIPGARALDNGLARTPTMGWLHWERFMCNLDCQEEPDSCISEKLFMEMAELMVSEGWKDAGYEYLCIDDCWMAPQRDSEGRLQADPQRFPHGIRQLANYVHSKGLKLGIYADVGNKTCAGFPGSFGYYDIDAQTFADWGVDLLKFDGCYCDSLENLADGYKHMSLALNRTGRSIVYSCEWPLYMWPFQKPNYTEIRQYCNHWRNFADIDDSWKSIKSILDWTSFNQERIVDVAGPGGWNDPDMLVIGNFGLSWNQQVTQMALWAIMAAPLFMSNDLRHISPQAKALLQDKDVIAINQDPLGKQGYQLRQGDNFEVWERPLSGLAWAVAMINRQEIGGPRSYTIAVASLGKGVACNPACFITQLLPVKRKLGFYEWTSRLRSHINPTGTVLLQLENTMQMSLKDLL
The depositor's hits bear a star; ? = inconclusive; / = not tested or not shown; & = joins results of further samples; [ ] = remark or other dose.

SMILES	Rango-impB inh	miR-21 reporter	Rango dissoc inh	GLA inh pH 4.5
Cc1ccc(CSc2nnc(NC(=O)C3COc4ccccc4O3)s2)cc1 (stereo not drawn)	-3.7%	-4%	-1%	3
Cc1ccc(S(=O)(=O)NC(=O)N(C)C2CCCCC2)cc1	0.2%	-1%	-7%	0
CCCc1nnc(NC(=O)c2cc3ccccc3oc2=O)s1	1.1%	-4%	?	-3
Cc1cnc(Sc2ncccc2[N+](=O)[O-])nc1	-0.5%	/	-9%	/
CC1(C)CC(=O)C(C=Nc2ccccc2)=C(O)C1	2.7%	-6%	-8%	8
CC1CCc2c(nc3ncnn3c2N2CC(C)OC(C)C2)C1 (stereo not drawn)	-0.2%	-1%	15%	5
CCCN(CCC)Cc1c(C(=O)N/N=C/C(C)=C\c2ccco2)nnn1-c1nonc1N	-3.6%	4%	0%	/
Cn1c(CCNC(=O)c2ccco2)nc2cc(NC(=O)C3CCCCC3)ccc21	-1.2%	-41%	-10%	-5
C=CCn1c(=O)c2ccccc2n2c(SCC(=O)/C(C#N)=C(\C)N)nnc12	-2.5%&1.5%	2%	-3%&15%	7
CCC(=O)Nc1ccc(NC(=O)c2ccco2)cc1	-1.8%	-35%	-15%	8
COc1ccc(S(=O)(=O)N2CCCCC2)cc1NC(=O)CCNC(=O)c1ccc(Br)cc1	-0.1%	/	-19%	/
Cc1ccc(N(CC(=O)NC2CCCC2)C(=O)CCC(=O)Nc2ccccn2)cc1C	-0.6%	-2%	-14%	/
Cc1ccc(NC(=S)NCc2ccc3c(c2)cc(C)n3C)c(C)c1	0.0%	-7%	9%	-10
O=C(NCCO)N1c2ccccc2Sc2ccccc21	-0.4%	-1%	2%	/
CC(CCc1ccccn1)C(=O)c1ccccc1 (stereo not drawn)	1.3%	/	-8%	/
CCC(=O)Nc1ccc(NC(=O)CSc2nnc(-c3ccc(O)cc3)n2CC2CCCO2)cc1 (stereo not drawn)	0.5%	2%	-9%	2
CCN(CC)C(=O)CSc1nc2cccnc2n1-c1ccccc1OC	-2.3%	-6%	9%	1
CN(C)c1ccc(Cc2cc3c(O)ccc(O)c3cc(Cc3ccc(N(C)C)cc3)c2=O)cc1	-7.3%	/	?	/
CSc1ccccc1OCc1cc(C(=O)N(C)Cc2cnccn2)no1	0.0%	-43%	11%	/
CN(C)CC(=O)c1c[nH]c2ccccc12	-1.0%	-2%	-2%	-2
O=c1cc(CN2CCN(Cc3ccccc3)CC2)c2ccc(O)cc2o1	?	-1%	?	/
O=C(N/N=C/c1cc(Cl)cc([N+](=O)[O-])c1O)NC12CC3CC(CC(C3)C1)C2	0.9%	-3%	-8%	-7
COC(=O)c1nn(-c2ccc(OC)cc2)c(=O)cc1NN	5.6%	-5%	-3%	1
O=C(NC1=NCCS1)C1Cc2ccccc2CN1C(=O)c1ccccc1 (stereo not drawn)	-0.4%	-7%	-15%	-4
CCOc1ccc(NC(=O)CCNS(=O)(=O)c2ccc3c(c2)CCC(=O)N3)cc1	-1.8%	-7%	-1%	-2
Cc1cc(NS(=O)(=O)c2ccc(NC(=S)NC(=O)c3ccc(Br)cc3)cc2)no1	0.9%	-18%	4%	-1
CN1CCC(N(C)C(=O)c2cc(=O)c3ccccc3o2)CC1	0.0%	-2%	7%	2
CCSc1nc(C)cc(Oc2ccc(=O)n(C)n2)n1	-6.5%	-2%	-10%	-1
COC(=O)c1sc2nc3c(cc2c1N)CCCC3	?	-35%	?	3
CN(C)c1ccc(/C=N/NC(=O)c2cccc(C(=O)N/N=C/c3ccc(N(C)C)cc3)n2)cc1	0.2%	-7%	3%	-13
Cc1ccc(NC(=O)C(=O)NCC2CCCO2)cc1C (stereo not drawn)	-2.2%	-43%	24%	3
CCn1c(SCC(=O)Nc2cc(C)ccc2C)nc2c(c1=O)SC(C)C2 (stereo not drawn)	?	-2%	18%	5
Cn1c(=O)c(C(=O)Nc2cnccn2)c(O)c2ccccc21	/	-18%	/	2
CC(=O)N1CCN(c2ccccc2NC(=O)COc2ccc(Cl)cc2Cl)CC1	-0.1%	-4%	7%	2
Oc1ccccc1C1=Nc2ccccc2N=C(c2ccco2)C1	?	-10%	?	-3
COC(=O)c1[nH]c2ccccc2c1NC(=O)CN1CCN(c2cccc(OC)c2)C(C)C1 (stereo not drawn)	-3.8%	6%	7%	-11
C=CCn1c(SCCN2CCCC2)nc2c([nH]c3ccccc32)c1=O	1.7%	-2%	-1%	-10
Cc1ccc2c(CC(=O)OCc3cc(=O)n4c(n3)sc3ccccc34)coc2c1	-3.9%	-4%	-16%	2
O=S(=O)(c1ccc(S(=O)(=O)N2CCC3(CC2)OCCO3)cc1)N1CCCC1	?	-1%	11%	4
O=C(O)CCCC(=O)N1CCCC1	0.0%	0%	11%	-9
Cc1cc2c(cc(C(=O)OC(C(=O)NCc3ccco3)C(C)C)n2C)o1 (stereo not drawn)	-1.6%	5%	-2%	1
COc1ccccc1NC(=O)CNC(=O)c1ccc(Br)o1	1.1%	4%	19%	/
CCC[C@@H](CN1CCC[C@H]1CN1C(N)=NC[C@H]1CC(C)C)N1C[C@@H](Cc2ccccc2)N(CCc2ccc(Cl)c(Cl)c2)C1=N	-0.6%	/	4%	/
CCOc1ccc(C(=O)NCC(=O)OCc2csc(-c3ccccc3)n2)cc1	-0.9%	-19%	7%	4
CN1CCN(C(=O)/C(=C\c2cccc([N+](=O)[O-])c2)NC(=O)c2cccs2)CC1	4.5%	-8%	0%	4
c1ccc(OCCN2CCNCC2)cc1	5.0%	/	-1%	/
Cc1nnc(SCC(=O)NCc2ccc3c(c2)OCO3)[nH]c1=O	2.7%	-2%	-3%	0
Cc1ccc(-c2nn(-c3ccccc3)cc2/C=N/NS(=O)(=O)c2ccccc2)cc1	-0.1%	-36%	18%	-4
CC(C)c1ccc(NC(=O)COc2ccccc2)cc1	-0.9%	-61%	-17%	/
Cc1c(NC(=O)c2cc(-n3cnnc3)ccc2Cl)cccc1-c1nc2ccccc2o1	-0.4%	-6%[7.66 µM]	-5%	3

More entries:
SMILES	Rango-impB inh	miR-21 reporter	Rango dissoc inh	GLA inh pH 4.5
N#Cc1c(NC(=O)CSc2ncn(-c3ccccc3)n2)sc2c1CCCC2	2.6%	-4%	-9%	-6
Cn1cnnc1Sc1ccc(C(=O)OCC(=O)NC2CC2)cc1[N+](=O)[O-]	0.6%	3%	-7%	4
CCc1ccccc1NC(=O)CN(C)C(=O)Cn1ncc(Cl)c(Cl)c1=O	7.2%	?	-2%	1
O=C(NCCOc1nc(N2CCCCC2)nc(N2CCCCC2)n1)Nc1ccccc1	-2.0%	1%	-14%	2
O=C(CN1CCCCCC1)Nc1ccccc1F	0.2%	-10%	3%	-28
COCCNC(=O)c1cccc(OC2CCN(Cc3ccc(C(C)C)cc3)CC2)c1	1.7%	18%	-5%	/
CCCC(=O)Nc1c(C)n[nH]c1C	1.0%	-5%	7%	?
O=C(c1ccco1)N1CCN(C(=S)Nc2cccc([N+](=O)[O-])c2)CC1	0.3%	6%	3%	-22
O=C(Nc1ccc2[nH]c(=S)sc2c1)c1ccccc1	-2.5%	-72%	-12%	-8
Cc1cccc(C2CC3(CC(C)(C)NC(=S)N3)Oc3cc(O)ccc32)c1 (stereo not drawn)	4.9%	29%	22%	-8
Cc1cc2c(cc1C)C(=O)NC(C)(C)C2	-2.9%	8%	-5%	3
Cc1nc(N2CCCC2)c2ccsc2n1	-0.9%	0%	0%	-6
CCc1nc(Sc2nc(C)cc(C)n2)c2oc3ccccc3c2n1	-2.1%	-10%	-13%	2
COC(=O)c1nc2n(n1)C(c1cccc(Cl)c1)C1=C(CCCC1=O)N2 (stereo not drawn)	0.7%	-7%	-28%	-6
O=C(Nc1cccc(C(F)(F)F)c1)/C(=C/c1ccco1)NC(=O)c1cccs1	1.3%	-10%	2%	-6
CCCCn1c(N)c(N(C)C(=O)c2ccc(Br)o2)c(=O)[nH]c1=O	1.1%	/	-8%	/
COc1ccc(N2C(=O)C3C(C2=O)C(C(=O)c2ccc(Cl)cc2)N2CCCC32)cc1 (stereo not drawn)	?	13%	?	-18
COc1cc(NC(=O)Nc2ccccc2OC)c(OC)cc1NC(=O)CN1CCCCC1	-0.3%	-5%	-1%	-2
O=C(NC(Cc1ccccc1)C(=O)O)/C(=C\c1ccc(F)cc1)NC(=O)c1ccccc1 (stereo not drawn)	5.5%	-2%	-11%	?
NC(=O)C1(Nc2ccc(C(=O)O)cc2)CCCC1	4.3%	/	4%	/

For reference, part of the list above:
SMILES	Rango-impB inh	miR-21 reporter	Rango dissoc inh	GLA inh pH 4.5
Cc1ccc(CSc2nnc(NC(=O)C3COc4ccccc4O3)s2)cc1 (stereo not drawn)	-3.7%	-4%	-1%	3
Cc1ccc(S(=O)(=O)NC(=O)N(C)C2CCCCC2)cc1	0.2%	-1%	-7%	0
CCCc1nnc(NC(=O)c2cc3ccccc3oc2=O)s1	1.1%	-4%	?	-3

The listing continues:
SMILES	Rango-impB inh	miR-21 reporter	Rango dissoc inh	GLA inh pH 4.5
O=C(O/N=C1\CCS(=O)(=O)c2sccc21)C1CC1	0.6%	5%	-8%	1
COc1ccccc1C(=O)NCC(=O)OCC(=O)c1ccc(Cl)s1	-0.2%	/	20%	/
COc1ccc(C(=O)N(CCc2ccccc2)Cc2ccccc2)cc1S(=O)(=O)N1CCOCC1	-1.2%	/	-10%	/
C=Cc1cccc(NC(=O)c2ccc(NC(=O)c3ccco3)cc2)c1	1.9%	4%	40%	/
O=C(CCCl)Nc1cc(SCCO)cc([N+](=O)[O-])c1	-2.7%	0%	1%	-2
CN(C)c1ccc(/C=N/N(CCC(=O)NC(C)(C)C)C2=NS(=O)(=O)c3ccccc32)cc1	?	1%	?	/
CCN1CCN(CCc2nc3cc(NC(=O)COc4ccc(Cl)cc4)ccc3n2C)CC1	-0.9%	0%	15%	3
COc1ccc(C(=O)CCC(C)(C)[N+](=O)[O-])cc1OC	-4.0%	-10%	-6%	-20
Cc1cc(NC(=O)c2ccc(NC(=O)c3cccs3)cc2)no1	-0.8%	-2%	5%	-19
CC(=O)OCC(OC(C)=O)C(OC(C)=O)C(OC(C)=O)C(=O)Nc1ccc(C)cc1 (stereo not drawn)	0.1%	0%	11%	5
COc1ccc(NC(=S)NC(C)C(c2ccccc2)N2CCOCC2)cc1 (stereo not drawn)	-0.2%	0%	11%	0
Cc1cccc2sc(N(CCN3CCOCC3)C(=O)CCS(=O)(=O)c3ccccc3)nc12	1.3%	/	18%	/
COc1cc(C(=O)N/N=C/C2CC=CCC2)cc(OC)c1OC (stereo not drawn)	0.1%	23%	4%	2
CCC1=NN(C(=O)c2ccc(Cl)cc2)C(O)(c2ccccc2)C1 (stereo not drawn)	0.5%	1%	?	/
COc1ccc(S(=O)(=O)Oc2ccc(C(=S)N3CCOCC3)cc2OC)cc1	2.3%	10%	5%	/
CCOCCCNC(=O)C1(O)c2cc(Br)ccc2NC(=O)N1c1ccc(OCC)cc1 (stereo not drawn)	-0.5%	0%	-1%	/
O=C(COc1ccc2ccccc2c1Br)Nn1cnnc1	-0.4%	-5%	0%	-5
Cc1ccc(S(=O)(=O)N2CCC(C(=O)Nc3ccc(S(=O)(=O)N4CCCC4)cc3)CC2)cc1C	0.6%	/	5%	/
CCCC[C@H]1COCCS(=O)(=O)N1Cc1ccc(F)cc1	-1.7%	-4%	0%	/
Cc1ccc(C(=O)N2CCCC(C(=O)c3ccc(Cl)cc3C)C2)cn1 (stereo not drawn)	5.2%	6%	-8%	/
CCc1cc(Cl)c(OC)c(C(=O)NC[C@@H]2CCCN2CC)c1O	3.0%&-1.6%	/	7%&-17%	3&5
CC(=O)Nc1nc2c(s1)CCc1ccccc1-2	-0.2%	-15%	-5%	/

The list is partial, so the mix of outcomes need not match the whole.
